Assay outcomes as filed in PubChem BioAssay.
Rce1 inh = yeast Rce1p protease inhibitors, primary screen, biochemical, fluorescence, cell-free homogeneous; yeast membranes, quenched prenylated peptide cleavage fluorescence; CAAX prenyl protease 2 (Saccharomyces cerevisiae (strain ATCC 204508 / S288c)), Q03530; 290,000 tested, 0.27% active; calls only;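 active = fall in fluorescence gain of 50% or more versus controls, with final raw signal at or below 3038400; inconclusive = same 50% fall but final raw signal above 3038400; inactive = fall in fluorescence gain under 50%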;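 note: plate controls were neutral control wells for no effect and wells lacking membranes for full effect; tested at 10 µM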
Target sequence (Q03530 whole entry, looked up): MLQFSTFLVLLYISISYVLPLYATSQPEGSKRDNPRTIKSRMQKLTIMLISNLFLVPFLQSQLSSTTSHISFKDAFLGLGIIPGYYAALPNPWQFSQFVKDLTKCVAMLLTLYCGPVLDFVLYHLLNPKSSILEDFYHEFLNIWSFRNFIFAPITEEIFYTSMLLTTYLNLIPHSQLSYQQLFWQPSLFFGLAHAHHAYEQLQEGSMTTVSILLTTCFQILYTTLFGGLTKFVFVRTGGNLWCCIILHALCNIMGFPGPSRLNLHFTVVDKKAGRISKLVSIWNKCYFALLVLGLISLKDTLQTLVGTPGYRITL
CSC inhib = cancer stem cell viability inhibitors, primary screen, luminescence. cancer stem cell-like cells viability. 300,000 tested, 1.1% active. AID 2717, 2010. inhibition, % at 7.5 µM;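 active = mean at 75% or more and at least half the replicates too; inconclusive = mean and replicates disagree; tested in HMLE shEcad cells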;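 note: 0% = median of negative and 100% = median of positive control wells; the first replicate is given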
PABP polyA inh = PABP poly(A) RNA binding inhibitors, primary screen, biochemical, fluorescence polarization, uHTS. Polyadenylate-binding protein 1 (Homo sapiens), P11940. inhibition, % at 35 µM. 290,000 tested, 1% active. AID 2014, 2009;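 active = 50% or more with normal probe brightness, or confirmed in later tests; inconclusive = above 50% with abnormal brightness, or retests that disagree; inactive = below 50% or failed in later tests; about a fifth of its hits are not listed in these tables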;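 note: calls also rest on retests at 20 µM and on dose response follow-up; controls were probe without protein and protein plus probe with vehicle; some compounds called inactive have numbers as strong as hits; many hits fall short of the cut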
UUG fidelity = modulators of yeast start codon fidelity, primary screen, whole organism, S. cerevisiae, single point, plate reader; S. cerevisiae UUG-firefly luciferase reporter, luminescence/redox ratio; activity score, % at 18.7 µM; 350,000 tested, 0.13% active; AID 602363, 2012;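 active = replicate mean at a twofold rise or more, about +100% in these data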;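 note: firefly luciferase made from a UUG start codon reports start codon fidelity; reporter light over untreated wells divided by growth signal over untreated wells; some hits fall short of that in this replicate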
MT1-MMP act inh = blockers of MT1-MMP proenzyme processing, primary screen, HT1080 RFP-PRO-GFP cells, GFP/RFP fluorescence; 360,000 tested, 0.061% active; GFP/RFP ratio fluorescence, overnight; percent of plate control window, DMSO zero; AID 651647, 2012; GFP/RFP ratio change, % at 20 µM; Matrix metalloproteinase-14 (Homo sapiens), P50281;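 active = GFP/RFP ratio change of at least 30% with cell ATP level not reduced by more than half and red fluorescence within 50% of control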; note: strong numbers were not always called active
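Material: RFP-PRO-GFP reporter HT1080 cells. Dosing: single-point 20 µM compound, 1% DMSO. Controls: DMSO and RFP-L50D-GFP cell wells. Timing: cells overnight before dosing, compound overnight, 37 °C, 5% CO2. Measure: GFP/RFP fluorescence ratio.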
Env fusion inh = inhibitors of HIV-1 Env-driven cell-cell fusion, primary screen, HeLa-JRFL effector, CEM21 target cells, luciferase; inhibition, % at 12.3 µM; 360,000 tested, 1.1% active; AID 651610, 2012;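 active = mean replicate inhibition score of at least 50 and every replicate individually at or above 50; inconclusive = only one of the two criteria met; inactive = mean below 50 and not all replicates reaching 50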;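 note: 0% = plate neutral controls and 100% = maraviroc near 300 nM; one replicate is shown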
eIF4H FP inh = human eIF4H binding inhibitors, primary screen, translation initiation inhibitor project, biochemical, uHTS, fluorescence polarization | Eukaryotic translation initiation factor 4H (Homo sapiens), Q15056 | eIF4H fluorescence polarization binding assay | inhibition, % at 35 µM | 290,000 tested, 0.94% active;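 active = 50% or more with normal probe brightness, or confirmed in later tests; inconclusive = above 50% with abnormal brightness, or retests that disagree; inactive = below 50% or failed in later tests; about a fifth of its hits are not listed in these tables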;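 note: calls also rest on retests at 20 µM and on dose response follow-up; 0% = protein and probe with vehicle and 100% = probe without protein; strong numbers were not always called active; many hits fall short of the cut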
eIF4H FP inh retest = second read-out of eIF4H FP inh, no call of its own (marks repeat the call); inhibition, %; compound at 20 µM; confirmation average;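 mean of two retest wells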
PABP polyA inh retest = second read-out of PABP polyA inh, no call of its own (marks repeat the call); inhibition, %; compound at 20 µM; confirmation repeats;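 mean of two retest wells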
MT1-MMP act inh RFP = also measured in MT1-MMP act inh; calls as there; RFP signal change, %; measured here: RFP expression control read;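 0 = vehicle wells; hits needed this value within 50% of zero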
* hit, by the source's call; i = inactive; ? = inconclusive; . = no result given; & = joins results of further samples. These rows are one share of the data. The share of hits here may be higher or lower than overall.

SMILES	Rce1 inh	CSC inhib	PABP polyA inh	UUG fidelity	MT1-MMP act inh	MT1-MMP act inh RFP	Env fusion inh	eIF4H FP inh	others
CCN(CC)S(=O)(=O)c1ccc(Cl)c(NC(=O)COC(=O)c2cccn2C)c1	i	4	1	.	0	-24	8	-3
Cc1cc(C)nc(OC(C(=O)O)C(OCC(C)C)(c2ccccc2)c2ccccc2)n1 (centres undefined)	i	7	-13	-5	-13	2	22	-9
Cc1cc(OCCOCCN2CCCC2)ccc1C(C)C	i	35	-2	.	-1	1	-39	7
Cc1cc(C)nc(SCc2cccc(C(=O)O)c2)n1	i	-8	16	-15	1	-8	.	-1
O=C(N/N=C/C=C/c1ccccc1)c1ccncc1	i	-10	-16	-16	-6	-2	-16	-4
Cn1c(SCC(=O)NCCN2C(=O)CSC2=O)nc2ccccc2c1=O	i	2	3	-16	3	2	-257	0
Cc1ccc(CN(Cc2cc3cc4c(cc3[nH]c2=O)OCCO4)Cc2nnnn2Cc2ccco2)cc1	i	-6	53	3	-26	8	17	37	eIF4H FP inh retest=-1;PABP polyA inh retest=9
CCCC(=O)N1CCN(c2nnc(-c3ccc(C)cc3)c3ccccc23)CC1	i	-8	2	-10	-5	-4	17	-9
CCOC(=O)C1CCN(c2ccc(Cl)nn2)CC1	i	-13	-15	.	1	1	-8	-6
CCc1ccc(C(=O)COC(=O)CNC(=O)c2ccc(Br)o2)cc1	.	-6	-7	-8	-5	3	-7	-8
COc1ccc(N2C(=O)CC(N(C)CCc3ccc(OC)c(OC)c3)C2=O)cc1 (centres undefined)	i	-11	8	-4	-2	3	2	-4
O=C(C(Cc1ccccc1)N1C(=O)C2C3C=CC(C3)C2C1=O)N1CCCCC1 (centres undefined)	i	-7	-5	-2	1	2	.	-1
CC(C(=O)NC1CCCCC1)N1CCN(C)CC1 (centres undefined)	i	11	1	-12	1	2	5	0
O=C1CCC/C(=N/NC(=O)C2CCN(S(=O)(=O)c3cccs3)CC2)C1	i	-5	-13	.	-2	2	-15	8
COc1ccccc1NC(=O)CSc1ccc(-c2ccc(-n3ccnc3)cc2)nn1	i	0	.	-23	0	-33	-10	.
COc1ccc(NC(=O)CCCCCn2nnc3ccccc3c2=O)cc1OC	i	-5	-9	-14	6	2	3	-3
CCCOc1ncnc2c1sc1nc3c(cc12)COC(C)(C)C3	i	-7	3	-2	2	0	-23	-6
COc1cc(-c2cc(C(=O)Nc3cccc(C(C)=O)c3)c3ccccc3n2)cc(OC)c1OC	i	13	12	-18	-4	-4	25	6
CCc1ccc(C(=O)COC(=O)c2cc([N+](=O)[O-])ccc2N2CCOCC2)cc1	i	32	.	11	-3	-19	?	.
Cc1cccc(NC(=O)NC(C)C(c2cccs2)N2CCOCC2)c1 (centres undefined)	i	-8	-2	-6	4	1	.	-7
COc1ccc(CN2C(=O)C(CC(=O)NC3CCCCC3)CC(C(=O)N(C(C)C)C(C)C)=C2C)cc1 (centres undefined)	.	.	.	22	4	4	-1	.
NS(=O)(=O)c1ccc(Nc2ccc3nonc3c2[N+](=O)[O-])cc1	i	-27	-11	-8	1	-2	5	-10
Cc1cc(C)c2c(-n3cccc3)c(C(=O)NNS(=O)(=O)c3ccccc3)sc2n1	i	21	5	11	-4	2	2	-14
CSc1nnc(N2C(=O)C(O)=C(C(=O)c3ccco3)C2c2cccc(Cl)c2)s1 (centres undefined)	i	-9	?	6	-68	6	3	?
O=C(NC1CC1)c1ccc(-c2ccc3nccn3c2)cc1	.	.	.	-12	1	5	-29	.
Remaining list, next part
SMILES	Rce1 inh	CSC inhib	PABP polyA inh	UUG fidelity	MT1-MMP act inh	MT1-MMP act inh RFP	Env fusion inh	eIF4H FP inh	others
Cc1cccc(C)c1NC(=O)CN(C)C(=O)c1ccc2c(=O)n3c(nc2c1)CCC3	.	-7	.	3	4	1	.	.
CC(Sc1nnc(-c2ccco2)n1C)C(=O)Nc1ccc(N2CCOCC2)cc1 (centres undefined)	.	.	.	-20	1	3	-8	.
Cc1ccc(S(=O)(=O)Nc2cncnc2NS(=O)(=O)c2ccc(C)cc2)cc1	.	.	.	-16	-3	4	6	.
CCc1ccc(N/C(SCc2cccc(F)c2)=C(/C#N)C(=O)NCc2ccco2)cc1	i	21	-5	-15	-23	-22	33	-4
CCOC(=O)C1C(=O)CC(C)(O)C(C(=O)OCC)C1/C=C/c1ccccc1 (centres undefined)	i	.	8	2	0	-2	.	-18
CC(=O)c1ccc(NC(=O)C(C)Sc2nnc(C3CCCCC3)o2)cc1 (centres undefined)	i	.	-6	.	.	.	-3	-10
O=C(Nc1nc2c(F)cccc2s1)c1ccc([N+](=O)[O-])o1	i	10	7	-16	5	-28	-37	-6
COc1ccc(C2CC(=O)c3cc(OC)c(OC)cc32)cc1OC (centres undefined)	i	20	-1	-9	2	0	-2	11
COc1ccc(-c2nc3c4ccccc4ccn3c2Cc2ccccc2)cc1OC	.	.	.	-6	-1	-1	-29	.
CCc1ccc(CN(C)C(=O)C2CCC(=O)N(CCc3ccc(OC)cc3)C2)nc1 (centres undefined)	i	-15	-4	-13	-4	-3	-9	3
O=C(O)CSCc1cnn(-c2ccccc2)c1-n1cccc1	i	7	3	-7	-1	2	16	4
Nc1ccc(S(=O)(=O)N2CCCC2)cc1	i	-14	-1	-2	-3	5	-49	0
O=C1C(Cc2ccccc2)Nc2ncnc(N3CCOCC3)c2N1Cc1ccc(Br)cc1 (centres undefined)	i	3	.	-7&-4	0&1	3&1	-3	.
O=C(c1ccc2c(c1)[nH]c(=S)n1c3ccccc3nc21)N1CCN(c2ncccn2)CC1	i	7	4	2	8	6	20	-6
CCCc1cc(=O)oc2cc(C)cc(OCC(=O)NC3CC3)c12	i	-6	-4	-11	-2	-5	2	-12
O=[N+]([O-])c1ccc2nc(-c3ccc(OC(F)F)cc3)cn2c1	i	7	12	.	0	-3	-88	6
CCN(CCCNC(=O)C1CCC(=O)N1C1CCCC1)c1cccc(C)c1 (centres undefined)	i	-13	-1	-21	2	2	.	9
Cc1cc(=O)oc2c(C)c(OCC(=O)NC3CC(C)(C)NC(C)(C)C3)ccc12	i	-10	.	-17	0	5	-2	.
COCCCNC(=S)Nc1ccc(N2CCCCC2)cc1	i	-4	-14	-25	-12	-7	-3	3
CCN(C(=O)CSc1nncs1)c1c(N)n(Cc2ccccc2)c(=O)[nH]c1=O	i	-6	2	-9	1	4	-33	5
CNC(=O)CSc1nc2cccnc2n1C1CCCCC1	i	-10	7	-23	3	2	-13	3
COc1ccc(-c2noc(=O)[nH]2)cc1	i	.	3	.	-5	4	-22	-8
Cc1n[nH]c(=S)n1/N=C/c1ccc(OCc2ccc(Cl)cc2)cc1	i	1	6	-23	-2	1	-176	8
COc1ccccc1Nc1ncccc1C(=O)O	i	-2	.	-25	7	4	2	.
CCc1cccc(N(C(=O)c2csnn2)C(C(=O)NC2CCCC2)c2cccnc2)c1 (centres undefined)	.	-9	-9	-8	1	4	7	4
(listing goes on)
SMILES	Rce1 inh	CSC inhib	PABP polyA inh	UUG fidelity	MT1-MMP act inh	MT1-MMP act inh RFP	Env fusion inh	eIF4H FP inh	others
Cc1cc(C)cc(C(=O)N(CCc2ccccc2)C2=CC3CCC(C2)N3C)c1 (centres undefined)	i	-16	6	.	3	6	5	-2
COc1ccc2c(CC(=O)OCC(=O)Nc3ccccc3[N+](=O)[O-])coc2c1	i	0	-6	.	-1	-1	-3	6
Cn1nnnc1SCC(=O)N1N=C(c2ccc(Cl)cc2)CC1c1ccco1 (centres undefined)	.	-17	.	-15	-2	-4	.	.
Cc1nn(C)c(NC(=O)c2ccc([N+](=O)[O-])cc2)c1Cl	i	-12	3	.	-4	-5	-97	-5
COc1cccc(OCC(=O)NC2CCCCCC2)c1	.	-12	.	-3	2	3	.	.
O=C(O)c1cccc(N(CCO)CCO)c1	i	-2	8	.	0	4	0	4
CC(=O)N/C(=C\c1ccccc1)C(=O)OCc1cc(C)ccc1C	i	23	7	-16	2	2	-3	-5
O=C(Cn1c(=O)c2c(ncn2Cc2ccccc2)n(Cc2ccccc2)c1=O)N1CCc2ccccc21	i	-12	8	-9	-2	-8	.	14
COc1ccc(NC(=O)c2cccc(N3C(=O)C4C5CCC(C5)C4C3=O)c2)cc1 (centres undefined)	.	-4	2	-15	0	-6	6	4
CCc1ccc(S(=O)(=O)Nc2cc3c(cc2N2CCOCC2)n(C)c(=O)c(=O)n3C)cc1	i	-14	7	6	3	-2	2	17
Cc1ccc2nc(COC(=O)c3cnccn3)cc(=O)n2c1	.	-30	.	-21	-2	3	0	.
COc1ccc(C(=S)N2CCN(c3ccccc3C)CC2)cc1OC	.	.	.	-14	-1	-4	5	.
CC(=O)Nc1ccc(SCC(=O)Nc2oc(C)c3c(C)n[nH]c(=O)c23)cc1	i	-5	.	-20	8	3	-23	.
CCN(CC(=O)Nc1c(F)cccc1F)C(=O)CCc1nc2cc(S(=O)(=O)N3CCOCC3)ccc2n1C	i	-8	.	.	8	2	-7	.
CCCCn1c(-c2nn(C)cc2Cl)n[nH]c1=S	.	-12	-5	-22	3	5	.	0
CC(CC(=O)Nc1ccc2c(c1)c(=O)n(C)n2Cc1ccc(F)cc1)c1ccccc1 (centres undefined)	.	.	.	-16	5	-14	-1	.
COc1ccc(NC(=O)Nc2ccon2)cc1OC	i	-34	2	-8	-3	0	-36	3
CCOc1ccc(CNC(=O)C2CCCN(S(C)(=O)=O)C2)cc1OC (centres undefined)	i	6	2	-17	-6	-7	.	6
CC(C(=O)NC1CCCC1)N(c1ccc(Oc2ccccc2)cc1)S(C)(=O)=O (centres undefined)	i	-8	-12	.	1	3	-12	-9
COC(=O)CCC(=O)Nc1nccs1	i	7	-14	-12	-5	-1	-4	-10
COc1ccc2c(c1)C(c1ccccc1)NC(=O)C2 (centres undefined)	i	-20	.	-42	-4	3	-12	.
Cc1[nH]c2ccccc2c1SCC(=O)N1CCN(c2ccccc2)CC1	i	-15	-15	-4	4	-4	-52	-12
O=C(O)C1CCCN1S(=O)(=O)c1ccc2c(c1)CCC2 (centres undefined)	i	-4	-4	-6	1	7	.	-12
O=C(NCCS(=O)(=O)NC1CCCCC1)c1ccccc1	i	-8	.	-6	-1	0	.	.
Cc1ccc(-n2nc3c(=O)n(CC(=O)NCc4cccs4)nc(C)c3c2C)cc1	i	-36	1	-6	9	-3	0	-2
CSc1ccc(NC(=O)NCc2ccccc2)cc1	i	8	-8	.	4	1	-14	-11
COc1cc2c(cc1OC)CN(C(=O)c1cc(COc3ccccc3SC)on1)CC2	.	.	.	-12	0	-1	-27	.
